# N370S GC = N370S glucocerebrosidase modulation, Gaucher chaperone candidate | P04062 | Potency, µM (doses to about 59.4 µM), without a hit: at the top dose activity change, negative = inhibition, most hits filed as inhibitors | actives 0.092% (n = 330,000) | AID 2101 | N370S GC spleen homogenate, 4MU-glucoside fluorescence;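 note: 0% = full enzyme activity and -100% = no enzyme basal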
# DT40 TDP1 CPT = DT40-hTDP1 cell growth loss with CPT; actives 12% (n = 420,000); chicken DT40 Tdp1-/-;hTDP1 cells + 20 nM CPT, ATP luminescence, 48 h; Potency, µM (titrated, usually from 46.2 µM), without a hit: at the highest dose activity change, negative = growth inhibition, actives largely listed as inhibitors; note: nearly all actives have a fitted effect of over 55% in size
#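 Cell growth measured by CellTiter-Glo luminescence after a minimum 48 h, 37 C compound exposure with 20 nM CPT in Tdp1-knockout DT40 cells stably expressing hTDP1, seeded 400/well; qHTS titration format.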
# * hit, by the source's call; u = inconclusive; x = no result given; & = joins results of further samples; [ ] = remark or other dose. Calls come from the whole dose curve; as a rule, active = well fitted curve in the direction sought with a large enough effect; inconclusive = small, poorly fitted or top-dose-only effect, or another doubt; inactive = no such curve, though single readings can be large; an effect the other way counts as inactive or inconclusive. Unless noted, % is set by controls: 0 for no effect and ±100 for the full control effect; potency is the fitted concentration of half-maximal effect. Some of the compounds tested, and most or all hits are left out here.
SMILES | N370S GC | DT40 TDP1 CPT
Clc1ccc(-c2nc3ccc(Cl)cn3c2CN2CCOCC2)cc1 | -18.9% | u
CC1N=C(c2ccccc2)c2cc(Br)ccc2NC1=O (configuration not stated) | -10.1% | u
CCN1CCN(CC(=O)c2c(C)n(Cc3ccccc3)c3ccc(OC)cc23)CC1 | -16.6% | u
COCCCNC(=O)Cn1cc(/C=C2\C(=O)NC(=O)N(c3ccccc3F)C2=O)c2ccccc21 | 1.0% | u
O=c1cccc2n1CC1CC2CN(c2ncnc3c2cnn3-c2ccccc2)C1 (configuration not stated) | -1.1% | -15.5%
CCOC(=O)c1c(C)n(Cc2ccccc2)c2ccc(OCC(O)Cn3nc(C)nc3C)cc12 (configuration not stated) | u | u
Cn1cc(C(=O)N2CCCCC2)c2ccccc21 | -20.8% | -9.8%
Cn1c(O)c(/C=C/C=Nc2ccccc2)c(=O)n(C)c1=S | -18.6% | -1.1%
C=C[C@@]12CN(C)[C@H]3[C@H]1[C@@]1(C(=O)Nc4ccccc41)C1CC2[C@@H]3CO1 | -19.1% | 4.4%
O=S(=O)(c1ccc(Cl)cc1Cl)N1CCCC1c1cccnc1 (configuration not stated) | 4.9% | 0.7%
Cc1nnc(SCc2nc3ccccc3c(=O)n2-c2ccccc2Cl)n1N | 4.8% | -5.2%
O=c1[nH]c(=S)[nH]c(O)c1N=Nc1cccc(S(=O)(=O)N2CCOCC2)c1 | -11.2% | -18.5%
CCOc1ccc2nc(N3CCC(C(=O)N4CCC5(CC4)OCCO5)CC3)sc2c1 | -1.4% | u
O=C(C1CCN(S(=O)(=O)c2ccc(Br)s2)CC1)N1CCN(c2ccccc2)CC1 | -2.9% | u
Cc1cccc(NC(=O)CSc2ccc(-c3ccco3)nn2)c1 | -3.4% | u
CCN(CCNc1ccc([N+](=O)[O-])c2cccnc12)S(=O)(=O)c1ccc(Cl)cc1 | -5.1% | -24.4%
CN1C2CCC1CC(OC(=O)c1ccc([N+](=O)[O-])cc1)C2 (configuration not stated) | -9.3% | -11.1%
O=c1[nH]c(=O)n(C2CCCCCC2)c(O)c1C=NCC1CCCO1 (configuration not stated) | 4.6% | -1.6%
Cc1cccc(N2CCN(CCc3ccccc3)CC2)c1C | -0.6% | u
CCc1ccc(N2C(=O)NC(=O)/C(=C\c3cc(C)n(-c4cc(C(=O)O)cc(C(=O)O)c4)c3C)C2=O)cc1 | -12.1% | 0.6%
COc1ccc(P2(=O)Nc3ccccc3N2)cc1 | -7.4% | 14.6µM*
C/C(=N\N1CCCCCC1)c1c(O)n(-c2ccccc2C)c(=O)[nH]c1=O | 5.8% | -66.5%
CC(C)COc1ccc(Cc2c(O)[nH]c(=S)[nH]c2=O)cc1 | -7.2% | 12.4%
Clc1ccc(C(Cl)(Cl)Cl)c(Cl)c1 | 9.0% | u
Cc1cccc2c1N(N=O)CCC2 | -1.1% | 9.5%
Cc1cc(C)nc(N2Cc3ccccc3C2=N)n1 | -5.2% | u
CCOC(=O)CNC(=O)CNC(=O)C(Cc1ccc(N(CCCl)CCCl)cc1)NC(C)=O (configuration not stated) | 5.6% | 1.3µM*
C/C=C1\C[C@H](C)[C@@](O)(CO)C(=O)OCC2=CCN3CC[C@@H](OC1=O)[C@@H]23 | 18.5%[21.6 µM] | x
O=C(CNC(=O)c1ccc(Cl)cc1)Nc1ccc(Br)cc1C(=O)c1ccccc1 | 27.3% | u
COc1ccc(CC2C(=O)N(c3ccccc3)C(=O)N(c3ccccc3)C2=O)c(OC)c1 | -1.0% | u
CC(C)n1nnnc1CN1CCN(C)CC1 | u | -0.2%
CCCCCn1c(=O)c(C(=O)NCCc2ccccc2)c(O)c2ccccc21 | -10.1% | u
O=C(Cn1c(=S)[nH]c2ccccc2c1=O)N1CCC2(CC1)OCCO2 | 7.6% | -8.6%
Cc1ccc2[nH]c(C)c(CCNCc3cccnc3)c2c1 | -13.1% | -1.3%
CC(C)Sc1nnc(OC(=O)N(C)C)n1-c1ccccc1 | -1.8% | -6.1%
CCC(C)NC(=O)CCC(=O)OC1O[C@H]2OC3(C)CC[C@H]4[C@H](C)CCC(C1C)C24OO3 (some centres not stated) | -16.0% | 0.206µM*
O=C(O)CC1OCC=C2CN3CCC45c6ccccc6NC4C1C2CC35 (configuration not stated) | 5.8% | 9.2%
Cc1cc(OCC(=O)NCc2ccc(S(N)(=O)=O)cc2)c2c3c(c(=O)oc2c1)CCC3 | 7.8% | 1.9%
CCc1ccc(OCCCN=C(C)c2c(O)n(C)c(=O)n(C)c2=O)cc1 | -3.8% | 13µM*
Cc1nc2cc(C(F)(F)F)ccc2n1C1CCN(Cc2nnnn2Cc2cccs2)CC1 | 1.9% | 16.4µM*
COc1ccc(C(=O)c2nc3ccccc3n2C(C)C)cc1 | 17.4% | -23.6%
O=C(Nc1c(F)cc(F)cc1F)c1cccn(Cc2ccccc2)c1=O | 3.2% | 6.0%
C=CCOC(=O)C1=C(C)OC(N)=C(C(=O)OCC)C12C(=O)N(CC(N)=O)c1ccccc12 (configuration not stated) | 9.7% | 2.6%
O=C(c1ccccc1F)c1cn(CC(=O)N2CCCCC2)c2ccccc12 | 2.9% | -6.8%
Cc1ccc(C)c(N2CCN(C(=O)CCS(=O)(=O)c3ccc4c(c3)oc(=O)n4C)CC2)c1 | -10.2% | 16.4µM*
CN1CCN(C(=O)COc2ccc(N(C)S(=O)(=O)c3ccc(F)cc3)cc2)CC1 | -5.1% | 4.8%
Cc1ccsc1C(=O)C1CCCN(CCO)C1 (configuration not stated) | -7.7% | 17.2%
Clc1ccc2nc3c(c(-c4ccccc4)c2c1)CNCC3 | -22.1% | u
C=CCN1C(=O)NC(=O)/C(=C/c2ccc(OC)c(COc3ccc(NC(C)=O)cc3)c2)C1=O | -0.9% | 2.59µM*
Cc1ccc(NC(=O)COc2ccc(-n3ccnc3)cc2)cc1Cl | -7.9% | u
COc1cccc(OCC(=O)N2CCN(C)CC2)c1 | 11.9%[2.35 µM] | -3.5%
COCCNC(=O)CN1C2CCC1CC(O)(c1cccnc1)C2 (configuration not stated) | -1.4% | 12.8%
O=C(c1cc(C(=O)NCc2ccccc2)c(=O)n(Cc2ccccc2)c1)c1cc(Br)ccc1O | 2.1% | u
O=C1C2CCCN2C(c2cccnc2)N1c1cccc(Cl)c1 (configuration not stated) | -3.8% | u
CC[N+]12CCC(CC1)C(=C(c1ccccc1)c1ccccc1)C2 | 17.2% | u
CCOP(=O)(C#CC(C)(C)C)C(O)(c1ccccc1)C(F)(F)F (configuration not stated) | 4.2% | -24.8%
CCC(C)(C)n1nnnc1CN1CCC(n2c(C)nc3cc(C(F)(F)F)ccc32)CC1 | 13.7% | -12.8%
C/C=C1/C[C@@H](C)[C@](O)(CO)C(=O)OCC2=CCN3CC[C@@H](OC1=O)[C@@H]23 | -12.8% | u
COc1ccc(-c2[nH]ncc2CNC(C)Cc2cccc(C)n2)cc1F (configuration not stated) | 1.1% | -28.7%
O=C(CN1CCCCC1)c1ccc2c(c1)OCO2 | 5.1% | 6.3%

# (more compounds)
SMILES | N370S GC | DT40 TDP1 CPT
CC(=O)N1CCC2(CC1)CC(=O)c1cc(OCC(=O)N3CCN(C)CC3)ccc1O2 | 11.2% | -0.5%
O=c1c2ccccc2nc(CN2CCCCCC2)n1-c1ccc(F)cc1 | -2.9% | -16.6%
CC1N(O)C2CCCCCC2N1O (configuration not stated) | 5.6% | 10.0%
O=C(COc1ccccc1)N1CCN(CCN2C(=O)c3cccc4cccc(c34)C2=O)CC1 | -7.0% | u
O=c1[nH]c2c(s1)C(c1cccnc1)C1C3CCC(C3)C1S2 (configuration not stated) | -24.0% | u
CCOC(=O)C(NC(=O)CCl)(Nc1ccc(C(O)(C(=O)OCC)C(F)(F)F)cc1)C(F)(F)F (configuration not stated) | 5.6% | u
CSc1ccccc1C(=O)C1CCCN(Cc2ccn[nH]2)C1 (configuration not stated) | -7.9% | -6.0%
CN1CC[C@@]2(C)c3cc(O)ccc3N(C)C2O1 (some centres not stated) | 1.5% | x
O=C(CCNC(=O)N1C[C@H]2C[C@@H](C1)c1cccc(=O)n1C2)Nc1cccc(Cl)c1 | -1.1% | 2.5%
Cc1ccc2cccc(OC(=O)N3CCCC3)c2n1 | 20.2% | 22.9%
O=C(NC1CCCCC1)C1CCN(C(=O)c2ccc(-c3ccccc3)cc2)CC1 | -5.7% | u
CN(C)C(=O)Oc1c(Cl)cc(Cl)c2cccnc12 | 5.8% | 1.3%
O=[N+]([O-])c1ccc(NC2CCCC2)c2ccncc12 | -6.5% | u
CCCOP(=O)(OCCC)c1nc(-c2ccccc2)oc1NCc1ccccc1 | 14.4% | 23.1µM*
COP(=O)(CC(=O)O)c1ccccc1 (configuration not stated) | 3.2% | -2.2%
Brc1cccc(CNCCc2ccc3c(c2)OCO3)c1 | -25.9% | u
Cc1ccccc1N1C(=O)CC(=O)NC1=O | 4.5% | -10.7%
C[N+]1(C)[C@@H]2CC[C@H]1CC(OC(=O)C(c1ccccc1)c1ccccc1)C2 (some centres not stated) | -13.0% | u
COc1ccc(OC)c([C@@H](O)[C@H](C)NC(C)(C)C)c1 | -9.2% | -2.0%
COc1ccc(OCC(=O)N2CCN(Cc3c[nH]c4ccccc34)CC2)cc1 | 20.0% | 1.64µM*
COc1cccc(C(=O)C2CCCN(Cc3ccc4nsnc4c3)C2)c1 (configuration not stated) | -10.8% | u
O=c1c2ccccc2nc(/C=C/c2cccnc2)n1Cc1ccccc1 | -14.7% | u
Cc1cccc(OCC(=O)N2CCN(Cc3ccc4c(c3)OCO4)CC2)c1 | 5.3% | -3.3%
COc1ccc(OC)c(NC2=NCCS2)c1 | 0.6% | 1.2%
COc1ccc(CCNCc2ccccn2)cc1OC | 14.6% | -11.6%
Cc1cc(OC(=O)c2ccco2)c2c3c(c(=O)oc2c1)CCCC3 | u | 11.6µM*
C=CCn1c(=O)c(C=Nc2cccnc2Cl)c(O)n(CCCC)c1=O | 8.3% | -1.6%
O=C(O)COc1ccccc1 | 1.9% | 10.9%&4.4%
CCN1CCC2(CCNC2)C1 (configuration not stated) | 5.1% | -16.1%
O=C1CN=C(c2ccc(Cl)cc2)c2oc3ccccc3c2N1 | -0.8% | 2.8%

# Entries of single compounds, looked up by structure. Screens in order: N370S GC	DT40 TDP1 CPT
# Results for C[N+]1(C)[C@@H]2CC[C@H]1CC(OC(=O)C(c1ccccc1)c1ccccc1)C2 (some centres not stated) : -13.0%	u
# Results for COc1ccc(CCNCc2ccccn2)cc1OC : 14.6%	-11.6%

# Carrying on:
SMILES | N370S GC | DT40 TDP1 CPT
Cc1ccc(C2=NCC(=O)Nc3ccc(Br)cc32)cc1 | -21.3% | -0.5%
CC(N)C(=O)OC(C)(C)Cc1ccc(Cl)cc1 (configuration not stated) | -6.7%&-3.2%&-1.8% | u
O=c1cccc2n1CC1CC2CN(Cc2ccc3c(c2)OCO3)C1 (configuration not stated) | 4.2% | -26.5%
COc1ccccc1-n1c(Cc2ccccc2)nc2ccccc2c1=O | -8.1% | 1.8%
O=C(O)Cn1cc(C(=O)c2ccccc2F)c2ccccc21 | -6.8% | 1.6%
O=P(OCC(F)(F)C(F)F)(N1CCOCC1)N1CCOCC1 | -0.4% | -4.5%
CCOC(=O)C1=C(N)Oc2cc(C)oc(=O)c2C12C(=O)N1c3c(cc(OC)cc32)C(C)=CC1(C)C (configuration not stated) | -10.2% | u
CCCCn1c(O)c(C(C)=NCCCn2ccnc2)c(=O)[nH]c1=O | 0.1% | -15.9%
O=C1Nc2ccc(Br)cc2C(c2ccccc2Cl)=NC1O (configuration not stated) | -6.3% | -16.5%
O=C(C(=O)N1CCOCC1)c1cn(Cc2ccc(F)cc2)c2ccccc12 | 0.2% | -7.0%
O=[N+]([O-])c1cccc(CN2CCN(Cc3ccc(Br)cc3)CC2)c1 | -5.0% | u
O=C(COc1ccc(Cl)cc1)N1CCN(C/C=C/c2ccccc2)CC1 | -15.2% | u
NC(=O)c1ccc(OCCC(O)N2CC=C(c3ccc(F)cc3)CC2)cc1 (configuration not stated) | -0.6% | -19.8%
CCOc1ccc(C2CC(c3c(O)n(C)c(=O)n(C)c3=O)=NN2)cc1 (configuration not stated) | 11.4% | 4.7%
COc1cc(OC)cc(C(=O)Nc2ccc(Br)cc2C(=O)c2ccccc2)c1 | 9.5% | -10.4%
O=[N+]([O-])c1cc(F)c(N2CCCCCC2)cc1N1CCNCC1 | -2.5% | 16.4µM*
CC1=CC(=C2C(=O)NC(=S)NC2=O)C=C(C(F)(F)F)N1C | -10.8% | -2.3%
Cc1c(C=O)c2ccccc2n1Cc1ccc([N+](=O)[O-])cc1 | -15.4% | u

# In the list so far, 3 contain a thiophene ring, fused or not:
SMILES | N370S GC | DT40 TDP1 CPT
O=C(C1CCN(S(=O)(=O)c2ccc(Br)s2)CC1)N1CCN(c2ccccc2)CC1 | -2.9% | u
Cc1nc2cc(C(F)(F)F)ccc2n1C1CCN(Cc2nnnn2Cc2cccs2)CC1 | 1.9% | 16.4µM*
Cc1ccsc1C(=O)C1CCCN(CCO)C1 (configuration not stated) | -7.7% | 17.2%

# Compound activity as filed in PubChem BioAssay.
